Bioassay records (PubChem BioAssay)
Sa ugtP lethal = growth inhibition of S. aureus ugtP deletion strain; growth inhibition, % (test concentration not listed); 330,000 compounds, 0.54% hits; S. aureus RN4220 ugtP deletion, OD600 growth, 16 h; some inactives read as strong as hits; AID 1259309;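 active means z-score under -3 and OD600 up to 0.15 on both plates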;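 further: plate controls were untreated wells for no effect and antibiotic for full effect; wells of about 80 µL received 100 nL stock; the first replicate is given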
BJeLR lethal = BJeLR cell viability loss; BJeLR (HRASV12) viability, CellTiter-Glo ATP luminescence, 48 h; reference of the scale not given here; inhibition, % (test concentration not listed); 300,000 compounds, 0.17% hits; AID 1554;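 active means replicate mean above 50%; inconclusive means above 50% but judged a plate artefact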;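 further: 50 nL library stock added to about 25 µL; numbers are from one replicate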
Bead autofluor = compound fluorescence in toxin protease inhibitor counterscreen | compound autofluorescence counterscreen, microsphere flow cytometry; hits give high values | fluorescence intensity (concentration not given with the values) | 360,000 compounds, 3.1% hits;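 active means at least 3 SD above the mean of all compounds, about 16000 in these data; inconclusive means too few beads counted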;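 further: 100 nL of 1 mM stock went into each well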
PrP 5UTR inh = suppresses PrP 5' UTR mRNA reporter expression. 340,000 compounds, 0.35% hits. inhibition, % (test concentration not listed). cell-based PrP 5' UTR mRNA reporter, plate reader;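 active means every replicate at 50% or more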;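 further: 0 = median of the neutral control wells; tested in H4 reporter cells; numbers are from one replicate; inactives centre near -14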
Mtb hypoxia inh = Mtb hypoxia fluorescent reporter inhibition. AID 1159583. fluorescence inhibition, % (concentration not given with the values). 300,000 compounds, 0.1% hits. M. tuberculosis hypoxia-regulated fluorescent reporter, fluorescence;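 active means 35 to 45% if threefold the growth effect, above 45% if 1.5-fold the growth effect; inactive means the rest, general growth blockers included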;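 further: wells of about 50 µL received 100 nL stock; 0% = vehicle wells and 100% = reference inhibitor wells; whole bacteria with a GFP reporter of the hypoxia response; strong numbers were not always called active; many hits fall short of the cut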
RN4220 kill = S. aureus RN4220 growth inhibition. OD600, 16 h. inhibition, % (no concentration beside the values). 330,000 compounds, 0.33% hits. AID 1259311;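 active means z-score of -3 or lower and OD600 up to 0.18 on both plates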;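 further: plate controls were untreated cells for no effect and reference antibiotic for full effect; stock transfer was 100 nL into about 80 µL; one replicate is shown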
Mtb hypoxia inh growth = also measured in Mtb hypoxia inh; calls as there; growth inhibition, %; measured here: M. tuberculosis growth (absorbance);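 0% = vehicle and 100% = reference antibiotic; read after six days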
The depositor's hits bear a star; u = inconclusive; x = not tested or not shown.

SMILES | Sa ugtP lethal | BJeLR lethal | Bead autofluor | PrP 5UTR inh | Mtb hypoxia inh | Mtb hypoxia inh growth | RN4220 kill
Cc1onc(-c2ccccc2)c1C(=O)NC(C)c1ccc2c(c1)OCO2 (stereo not given) | 1.8 | 5.0 | 5421 | -9.3 | 6.9 | 1.0 | 3.2
O=C(COc1ccc(Cl)cc1Cl)NCCCNC(=O)c1cnccn1 | 1.5 | 3.7 | 3163 | 16.4 | 2.5 | 1.1 | 5.9
COc1ccc(C(=O)NCCCNC(=O)c2cccnc2)cc1Br | 7.0 | 14.1 | 5152 | -29.3 | 3.8 | 4.9 | 5.3
Cc1cc(=O)c2ccccc2n1Cc1ccccc1 | 6.2 | 1.8 | 2467 | 3.9 | 11.0 | 1.3 | 4.9
CCCCNC(=O)C1CC(=O)N(C2CCCC2)C1 (stereo not given) | 8.0 | -7.4 | 7919 | -19.7 | 8.2 | 0.3 | 1.1
CC(=O)C1=C(C)NC(SCC(N)=O)=C(C#N)C1CC(C)C (stereo not given) | 3.0 | -2.0 | 4316 | -12.4 | 0.3 | -0.3 | 2.8
O=C(COC(=O)c1ccc(Cl)c(S(=O)(=O)NCc2ccccc2)c1)NC1CC1 | 8.0 | x | u | -16.9 | -0.5 | -1.7 | 4.7
COCCc1nc2ccc(C(=O)N(C)Cc3cccc(-n4cccn4)c3)cc2o1 | 2.8 | 2.7 | 5628 | -29.1 | -0.3 | -1.6 | 2.2
COC(=O)C1(C(O)C(=O)c2ccc(C)cc2C)CCCCC1 (stereo not given) | 8.9 | 0.0 | 4048 | -4.0 | 3.3 | 8.3 | 4.1
Cc1cccc(-c2noc(CN(C(C)C)S(=O)(=O)c3ccc(F)cc3)n2)c1 | 37.0 | 0.3 | 2895 | 0.3 | x | x | 14.7
Clc1cccc(-c2nnc(SCc3nc4ccccc4[nH]3)n2Cc2ccco2)c1 | -3.4 | -3.6 | 4326 | -16.3 | 8.5 | 2.1 | -3.8
Cc1c(C(=O)Nc2ccccc2Cl)oc2ccc(S(=O)(=O)N3CCC4(CC3)OCCO4)cc12 | 7.7 | 3.6 | 22384* | -5.3 | -1.7 | 1.2 | -1.1
CCNc1nc(NCC)n2c(SCc3nc4ccccc4c(=O)[nH]3)nnc2n1 | 2.6 | -8.6 | 3335 | -1.5 | 0.1 | 2.7 | 1.3
NC(=O)c1ccc(NCC2COc3ccccc3O2)c([N+](=O)[O-])c1 (stereo not given) | 3.6 | 1.9 | 5328 | -29.9 | 4.8 | 4.0 | 6.1
Cc1cc(C)cc(Oc2ncnc3c2ncn3Cc2c(Cl)cccc2Cl)c1 | 73.7 | -5.3 | 11388 | -8.4 | 6.5 | 5.9 | 1.1
COc1ccc(C2=NOC(Cn3nc(C(=O)NCc4cccc(Br)c4)cc3-c3ccccc3)C2)cc1 (stereo not given) | -3.2 | x | 3417 | -12.4 | 0.1 | 3.1 | -2.5
O=C(Nc1cccnc1Oc1ccc(Cl)cc1)c1cccc2ccccc12 | 66.7 | 2.4 | 4542 | -5.2 | 4.4 | -2.2 | -0.8
CCNC(=S)N1CCN(S(=O)(=O)/C=C/c2ccccc2)CC1 | -2.2 | -7.0 | 5836 | 4.6 | -4.5 | 7.1 | -1.4
Cc1ccc(-n2c(C)cc(C(=O)COc3cccnc3[N+](=O)[O-])c2C)cc1 | -4.2 | -20.0 | 10645 | 49.8 | 13.5 | 1.3 | -1.7
c1ccc(-n2nnnc2-c2cccc3ccccc23)cc1 | -1.7 | x | 2879 | -26.9 | 5.5 | 19.5 | 2.8
O=C(Oc1ccccc1[N+](=O)[O-])c1cccnc1 | 4.5 | 0.1 | 2520 | 1.3 | x | x | 1.6
C/C(=C\C(=O)c1ccc(Cl)s1)N(C)C | 5.1 | 8.2 | 4034 | -28.9 | 0.8 | -0.8 | 2.4
Cc1cc(=O)n2[nH]c(-c3ccsc3-n3c(C)ccc3C)cc2n1 | -5.6 | -2.6 | 4169 | -32.9 | 8.4 | 3.9 | 5.2
C/C(C=NNC(=O)c1nnn(-c2nonc2N)c1C(C)C)=C\c1ccco1 | -5.9 | x | x | x | -1.4 | 1.0 | 15.6
CC(=O)c1c(C)[nH]c(C(=O)COC(=O)CCCOc2ccccc2)c1C | 5.6 | -0.2 | 3128 | 58.3* | 3.4 | -0.2 | 3.6
COc1ccc(CNC(=O)Cn2nc(Cc3cccnc3)c3ccccc3c2=O)cc1 | 0.8 | -19.9 | 6904 | -15.7 | 4.1 | 4.7 | -9.6
COc1cc2c(cc1OC)C(C)N(C(=O)c1c(C)noc1C)CC2 (stereo not given) | 13.4 | 9.2 | x | 1.9 | 2.1 | 0.2 | 4.4
CC(=NOc1nc(C)cc(C)n1)c1ccc(Cl)cc1Cl | -5.2 | x | x | x | 6.7 | 8.5 | 2.0
O=C(Nc1ccc(N2CCOCC2)cc1)c1ccc(S(=O)(=O)NCc2ccco2)cc1 | 5.9 | 4.5 | 5712 | -42.3 | -2.3 | 4.8 | 2.3
O=C(CSc1nnc(COc2cccc3cccnc23)o1)N1CCCC1 | 0.5 | 8.9 | 3926 | -14.2 | 4.4 | 6.2 | 1.9
NNC(=O)c1ccc(Cn2cc(Br)cn2)o1 | 11.8 | -4.8 | 5238 | 0.9 | 10.6 | 4.0 | 4.4
COCCN1C=C(C(=O)OC)C(c2ccccc2C(F)(F)F)C(C(=O)OC)=C1 | x | -6.3 | 4647 | -11.1 | x | x | x
FC(F)(F)c1cc(C(F)(F)F)n2nc(-c3sccc3-n3cccc3)cc2n1 | 28.5 | 5.8 | 22337* | -7.8 | 0.3 | 2.9 | 0.3
Cc1ccc(S(=O)(=O)N2CCOCC2)cc1C(=O)N(Cc1nnc(-c2ccccc2Cl)o1)C1CC1 | -4.6 | -3.0 | 6449 | -11.2 | 8.3 | -2.6 | 1.4
CC1=NN(C(C#N)c2cccc([N+](=O)[O-])c2)C(C)(C)C1 (stereo not given) | 11.3 | 7.8 | 10042 | -27.0 | 15.4 | 11.5 | 6.6
COc1cccc(C2CC(=O)N3CN(c4ccccc4F)CSC3=C2C#N)c1 (stereo not given) | -5.6 | 5.7 | 4516 | -40.4 | 3.3 | 10.8 | -7.8
Cc1cc2occ(CC(=O)NC3CCCc4ccccc43)c2cc1C (stereo not given) | 0.1 | -7.4 | 2577 | -24.2 | 5.5 | 0.0 | 3.8
CCOC(=O)c1cc(-c2ccc(C)cc2)n(CCC(=O)NCCN(C)C)c1C | 5.6 | -1.7 | 22889* | -8.5 | 5.7 | 4.6 | 1.0
O=C(c1ccccc1NS(=O)(=O)c1ccc(F)cc1)N1CCCC1 | -0.1 | 13.0 | 11278 | -10.1 | -4.9 | 5.9 | 1.2
COc1ccc(NC(=O)C2=NN(C3CCS(=O)(=O)C3)C(=O)CC2)cc1S(N)(=O)=O (stereo not given) | 6.5 | x | 3409 | -21.1 | 4.1 | 6.6 | 3.5
O=C(Nc1ccc(Oc2ccc(S(=O)(=O)N3CCOCC3)cn2)cc1)c1ccco1 | -2.3 | 7.3 | u | -28.7 | 7.8 | 10.1 | 0.8
COc1ccc(C(C)C)cc1S(=O)(=O)N1CCC(C(=O)NCC2CCCO2)CC1 (stereo not given) | -2.9 | 5.1 | 6518 | -21.4 | 4.2 | 2.9 | 4.6
CC(=O)c1cc(-c2ccccc2)n(CC(=O)N2CCC(C)CC2)c1C | -0.2 | -20.7 | 17028* | 7.4 | -2.0 | -4.4 | 3.6
N#C/C(=N\Nc1cccc(C(F)(F)F)c1)C(=O)c1csc(-c2cccnc2)n1 | x | -1.0 | 4227 | -21.3 | x | x | x
O=C(c1cc2sccc2n1Cc1ccc(F)cc1)N1CCCc2ccccc21 | -11.0 | 4.2 | 4088 | -1.9 | -10.0 | 1.7 | -7.0
Nc1cc(N)cc(-c2nc3ccccc3o2)c1 | 3.6 | -1.0 | 4817 | 2.4 | x | x | 3.5
O=C(CNc1cccc(Cl)c1)NNC(=S)NCc1ccccc1 | 3.8 | -4.5 | 4853 | -1.1 | 1.7 | 5.5 | -11.7
CNC(=S)N(CCN(C)C)Cc1cc2cc3c(cc2[nH]c1=O)OCO3 | 1.5 | 5.0 | 3581 | -7.0 | 4.6 | 7.5 | 2.7
COc1ccccc1N(Cc1cc(=O)[nH]c2ccccc12)C(=O)c1ccccc1 | 3.1 | -1.7 | 4743 | -14.4 | 11.4 | 6.4 | 5.2
CCn1cc(CCCC(=O)NCc2ccccc2OC)c2ccccc21 | -7.1 | 0.2 | 4065 | -16.3 | -0.4 | 6.6 | -0.8
CCOc1ccc2c(c1)C(C)=CC(C)(C)N2S(=O)(=O)c1ccc(NC(C)=O)cc1 | -10.2 | 50.4 | 4214 | 77.7* | 9.0 | -3.5 | 8.3
CC1(C)CC(=O)C=C(c2ccc(Cl)c(C(F)(F)F)c2)C1 | 3.3 | x | 2722 | -0.3 | 10.3 | 9.6 | 5.2
Cn1c(Cn2cnc([N+](=O)[O-])n2)nnc1SCC(=O)Nc1ccccc1 | x | -10.9 | 5095 | -34.6 | x | x | x
COc1cc(C(=O)Nc2ccccc2C2COC(=O)C2=N)cc(OC)c1OC (stereo not given) | 8.7 | 7.2 | 2150 | -1.7 | 7.0 | 9.7 | 4.4
Cc1cccc(NC(=O)CSc2nnc(-c3ccco3)c(-c3ccco3)n2)c1 | 5.7 | x | 3944 | -10.5 | -2.3 | 7.9 | 7.9
CCOc1ccc2[nH]cc(S(=O)(=O)c3ccc(F)cc3)c(=O)c2c1 | 3.2 | 2.5 | 5057 | -13.5 | 2.5 | 4.3 | 8.5
CN1CCN(c2ccccc2C=NNC(=O)c2cccnc2)CC1 | -0.8 | x | x | x | -16.2 | -2.2 | 1.2
OCCSc1ncnc2c1oc1ccccc12 | -23.9 | 3.6 | 2567 | -12.5 | 6.3 | 6.5 | 5.5
CCN(CC)C(=O)c1ccccc1NS(=O)(=O)c1cccs1 | 3.6 | 6.7 | 4398 | -6.0 | 9.5 | 0.4 | 4.1
Cc1cc(=O)oc2c(C)c(OCC(=O)N3CCN(Cc4ccc5c(c4)OCO5)CC3)ccc12 | 0.9 | -5.7 | 5773 | -6.7 | 9.3 | 4.8 | 0.3

(continued)
SMILES | Sa ugtP lethal | BJeLR lethal | Bead autofluor | PrP 5UTR inh | Mtb hypoxia inh | Mtb hypoxia inh growth | RN4220 kill
Cc1nc(NCc2ccccc2)c(C(N)=O)c2c1COC(C)(C)C2 | 1.0 | 2.4 | 2146 | -8.4 | x | x | -0.4
CC(=O)Nc1ccc(NC(=O)CSc2ccc(-c3ccc4c(c3)OCO4)nn2)cc1 | x | -12.6 | 2036 | -36.0 | x | x | x
CCc1c(C(=O)NNC(=S)NCC(C)C)csc1C | 3.0 | -4.2 | 11674 | -40.5 | 6.4 | 6.8 | 1.3
CN(c1ccccc1)S(=O)(=O)c1ccc(C(=O)NCc2ccccn2)cc1 | 4.8 | 3.0 | 3892 | -18.6 | 9.8 | 2.0 | 4.1
CN(CC(=O)Nc1cccc(F)c1)C(=O)c1cc(S(=O)(=O)N(C)C)ccc1N1CCCC1 | 8.8 | -4.7 | 4861 | -3.4 | -2.2 | -5.8 | 1.1
Cc1cc(C)nc(NN=Cc2ccccc2OCc2ccc(Br)cc2)n1 | 12.7 | x | x | x | 3.0 | -0.8 | 7.2
CSc1ccc(Cl)c(C(=O)Nc2ccc(N3CCOCC3)cc2)c1 | 3.4 | -4.7 | 3244 | -9.7 | 16.8 | 2.5 | 14.2
Cc1cc(C)nc(NS(=O)(=O)c2ccc(NC(=O)COc3ccccc3)cc2)n1 | 1.7 | -5.7 | 9824 | -8.5 | 7.6 | 9.7 | 1.8
Cc1cc(C)cc(NC(=O)C(C)N2C(=O)c3ccccc3C2=O)c1 (stereo not given) | 10.0 | 11.5 | 3639 | -19.9 | 3.6 | -4.4 | 4.0

Another view of 3 compounds above.
canonical_smiles	Sa ugtP lethal	BJeLR lethal	Bead autofluor	PrP 5UTR inh	Mtb hypoxia inh	Mtb hypoxia inh growth	RN4220 kill
CN(c1ccccc1)S(=O)(=O)c1ccc(C(=O)NCc2ccccn2)cc1	4.8	3.0	3892	-18.6	9.8	2.0	4.1
CN(CC(=O)Nc1cccc(F)c1)C(=O)c1cc(S(=O)(=O)N(C)C)ccc1N1CCCC1	8.8	-4.7	4861	-3.4	-2.2	-5.8	1.1
Cc1cc(C)nc(NN=Cc2ccccc2OCc2ccc(Br)cc2)n1	12.7	x	x	x	3.0	-0.8	7.2
